# Screening results deposited in PubChem BioAssay by several laboratories.
# Mtb bLac sens: beta-lactam sensitization of Mtb H37Rv; 330,000 tested, 0.27% active; M. tuberculosis H37Rv growth with meropenem, percent inhibition; hits of this screen are not shown here; inhibition, % at 25 µM;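 active = about 74% or more and at least 40 points above the plate without the antibiotic, then above 30% in a dose series; inconclusive = first-round hits that could not be retested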;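 note: growth measured after seven days incubation then overnight dye step; 0% = bacteria only wells and 100% = bacteria with antibiotic; twin plates without the antibiotic show which effects depend on it; some results filed as inactive read as strong as hits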
# Mtb growth: M. tuberculosis H37Rv growth inhibitors, H37Rv strain (AID 1626) | inhibition, % at 10 µM; hits with a dose series show IC50 in µM | M. tuberculosis H37Rv growth inhibition; higher % means a stronger effect | 220,000 tested, 0.95% active;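 active = confirmed in a dose series; inconclusive = inhibition above 80% but not taken into the dose series; inactive = below 80% or under 30% at every dose of the series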;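 note: bacteria incubated seven days before Alamar blue readout; 0% = bacteria only wells and 100% = bacteria with antibiotic wells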
# YopH PTP inh: blocks Yersinia enterocolitica YopH tyrosine phosphatase. 140,000 tested, 0.16% active. fluorescence Ex485/Em525. inhibition, %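 (about 10 µM by stock and volumes)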;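 active = inhibition of 50% or more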;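 note: controls were vehicle for no effect and minimum signal wells for full effect; inactives centre near -20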
# Arbovirus inh: arbovirus infection inhibition. 200,000 tested, 0.37% active. arbovirus infection cell-based antiviral screen. inhibition, % at 10 µM. AID 1251;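 active = inhibition from about 30%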;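 note: bluetongue infection of BSR cells; cell survival read as ATP light after 72 h; 0% = infected wells without compound and 100% = uninfected wells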
# RecA intein inh: blocks M. tuberculosis RecA intein splicing; P9WHJ3; AID 2221; cell-free RecA intein splicing, fluorescence; inhibition, %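 (about 9 µM by stock and volumes)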; 290,000 tested, 0.75% active; in the data active = inhibition above about 30%; inconclusive = no clear call, values can overlap the other calls;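 note: 0% = vehicle wells and 100% = reference inhibitor control wells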
# Target sequence (P9WHJ3 whole entry, looked up): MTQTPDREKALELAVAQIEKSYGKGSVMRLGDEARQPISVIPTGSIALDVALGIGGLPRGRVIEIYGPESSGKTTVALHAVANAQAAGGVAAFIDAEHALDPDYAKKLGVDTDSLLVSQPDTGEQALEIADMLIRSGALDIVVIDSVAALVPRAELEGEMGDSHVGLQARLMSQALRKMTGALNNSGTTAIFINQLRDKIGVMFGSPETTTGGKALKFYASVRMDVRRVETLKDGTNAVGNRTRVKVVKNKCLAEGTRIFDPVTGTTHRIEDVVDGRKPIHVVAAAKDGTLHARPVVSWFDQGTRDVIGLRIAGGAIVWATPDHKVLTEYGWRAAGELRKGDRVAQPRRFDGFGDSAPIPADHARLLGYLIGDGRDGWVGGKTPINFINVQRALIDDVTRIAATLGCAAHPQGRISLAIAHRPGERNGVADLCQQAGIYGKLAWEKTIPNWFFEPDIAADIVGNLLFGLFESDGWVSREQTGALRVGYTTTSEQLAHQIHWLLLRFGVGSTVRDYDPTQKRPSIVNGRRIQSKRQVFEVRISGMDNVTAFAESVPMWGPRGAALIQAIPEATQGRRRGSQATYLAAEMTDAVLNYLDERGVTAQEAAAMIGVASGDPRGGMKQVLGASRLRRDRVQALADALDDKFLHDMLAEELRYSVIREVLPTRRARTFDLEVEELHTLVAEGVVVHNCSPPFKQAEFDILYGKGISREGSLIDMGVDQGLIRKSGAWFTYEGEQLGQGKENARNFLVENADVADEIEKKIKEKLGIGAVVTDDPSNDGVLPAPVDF
# Arbovirus inh repeat: also measured in Arbovirus inh; calls as there; inhibition, %; measured here: 10K subset replicate screen; many hits read low in the repeat;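 first of two repeat runs on a subset; 0% = infected and 100% = uninfected wells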
# Numbers without * were called inactive; ? = inconclusive; nt = not tested or not shown.
SMILES,Mtb bLac sens,Mtb growth,YopH PTP inh,Arbovirus inh,RecA intein inh,others
CC(=O)c1cc(-c2ccc(F)cc2)n(CCC(=O)Nc2cc(C)[nH]n2)c1C,-9,5%,-31,-1,-0.5,
N#C/C(=C\c1ccccc1)c1nc2ncccc2[nH]1,-2,1%,-43,2,21,
CC(=O)N1c2c(cc(Br)cc2S(=O)(=O)N2CCCCC2)CC1C (configuration not stated),-5,nt,nt,nt,-1.9,
O=C(CSc1ncc(C(F)(F)F)cc1Cl)N1CCN(S(=O)(=O)c2ccc(Cl)cc2)CC1,23,nt,-16,-12,4.7,
CCOc1cc(Br)c(C=O)cc1OCC,3,4%,nt,5,2.2,
Cc1ccc(-c2cc(-c3nnc(SCC(=O)N(C)CCC#N)n3N)c3ccccc3n2)cc1,-5,4%,-44,-4,-0.4,
CCN(CC)c1ccc(/C=C(/C#N)c2nc3ccccc3[nH]2)c(OC(C)C)c1,98,0.49µM*,-50,-20,-2.2,
COc1ccc(Cl)cc1N(CC(=O)N1CCCCC1)S(C)(=O)=O,-6,-3%,nt,3,nt,
COc1cccc(C2/C(=C(/O)c3ccc4c(c3)CC(C)O4)C(=O)C(=O)N2CC2CCCO2)c1 (configuration not stated),-3,nt,nt,nt,-0.2,
CC(=O)NN1C(=O)/C(=C2/Sc3ccc(Cl)cc3N2C)SC1=S,10,nt,nt,nt,-2.6,

# The last 4 compounds of the part before open the next one:
SMILES,Mtb bLac sens,Mtb growth,YopH PTP inh,Arbovirus inh,RecA intein inh,others
CCN(CC)c1ccc(/C=C(/C#N)c2nc3ccccc3[nH]2)c(OC(C)C)c1,98,0.49µM*,-50,-20,-2.2,
COc1ccc(Cl)cc1N(CC(=O)N1CCCCC1)S(C)(=O)=O,-6,-3%,nt,3,nt,
COc1cccc(C2/C(=C(/O)c3ccc4c(c3)CC(C)O4)C(=O)C(=O)N2CC2CCCO2)c1 (configuration not stated),-3,nt,nt,nt,-0.2,
CC(=O)NN1C(=O)/C(=C2/Sc3ccc(Cl)cc3N2C)SC1=S,10,nt,nt,nt,-2.6,
Cc1ccc(NCc2nnc(SCC(N)=O)o2)c(C)c1,-7,-3%,nt,-4,-0.9,
CC(=O)c1ccc(N(C(=O)c2csnn2)C(C(=O)NC2CCCC2)c2ccccc2)cc1 (configuration not stated),6,nt,nt,nt,0.4,
CSCC[C@H](NS(=O)(=O)c1ccc(C)cc1)C(=O)N1CCC(C(=O)N[C@@H](C)C(=O)O)CC1,-9,nt,nt,nt,2.2,
CC(C)CC(=O)NNC(=S)Nc1ccc(S(N)(=O)=O)cc1,7,4%,nt,4,-2.1,
C[n+]1ccc(C(=O)N/N=C/c2ccco2)cc1,-3,6%,-27,-8,-4.4,
COCCNC(=O)C(c1ccc(C)o1)N(Cc1ccc(F)cc1)C(=O)Cn1nnc2ccccc21 (configuration not stated),-7,-2%,14,-1,2.6,
CC(Cc1cccs1)NC(=O)c1cccc(Cl)c1 (configuration not stated),5,2%,-15,-7,2.5,
O=C(COC(=O)C1(c2cccc(F)c2)CCCC1)NCc1ccc2c(c1)OCO2,8,-3%,-41,-2,3.7,
O=C(c1nc2ccccc2s1)N1CCN(c2ccccn2)CC1,-3,-2%,13,-8,nt,
O=C(Oc1ccc(OC(=O)N2CCCCC2)cc1)c1ccccc1,-4,4%,-33,4,2.8,
COc1ccc(N2CCN(C(=O)c3cc(-c4cccs4)nc4ccccc34)CC2)cc1,79,61%,nt,0,4.2,
O=C(CC1C(=O)NCCN1Cc1ccc(F)cc1)NC1CCCCCCC1 (configuration not stated),3,nt,nt,nt,1.4,
O=C(NC(=S)Nc1ncccn1)c1ccccc1Cl,-2,3%,-8,-5,-0.9,
CCN(CC)c1ccc(NC(=O)COc2ccccc2C#N)cc1S(=O)(=O)Nc1ccccc1OC,8,0%,-33,-11,-2.1,
CC(=O)Nc1ccc(NC(=O)CNS(=O)(=O)c2ccc(C)cc2)cc1,-2,-3%,-46,-4,-0.4,
CCc1cc2c(SCC(=O)N(C)C3CCS(=O)(=O)C3)ncnc2s1 (configuration not stated),-1,9%,nt,nt,2.8,
COc1ccc([C@H]2[C@H](C(=O)C(C)(C)C)N3N=Cc4ccccc4C3[C@]23N=C(c2ccccc2)OC3=O)cc1OC (some centres not stated),16,nt,13,2,nt,
CCCC(=O)Nc1ccccc1N1CCN(C(=O)C(C)C)CC1,-5,-5%,-4,5,2.4,
C=CCNC(=O)COc1ccc(S(=O)(=O)N2CCCC2)cc1,-1,0%,nt,-1,-0.8,
COCc1cc(S(=O)c2ccc(Cl)cc2)nc(C)n1 (configuration not stated),nt,15µM*,nt,-26,11,
COc1ccc(OCCCC(=O)Nc2cccc(SC)c2)cc1,88,>100µM*,-13,2,-0.9,
COc1ccccc1/C=C/CN1CCCC(CCC(=O)NCc2ccc(F)c(F)c2)C1 (configuration not stated),5,-3%,nt,6,2.4,
CCOC(=O)C1(Cc2cccc(Cl)c2)CCCN(C(=O)C2CC2)C1 (configuration not stated),-9,1%,nt,2,nt,
C(=N\Nc1ccccn1)/c1ccc(N2CCOCC2)cc1,-3,-5%,nt,-27,-2.2,
CC(=O)N1N=C2C3CCN(CC3)C2C1c1ccc(C)cc1 (configuration not stated),-3,-2%,-9,0,0.1,
CC(C)CCNC(=O)CN1N=C(c2ccc(Cl)cc2)CCC1=O,6,nt,nt,nt,1.2,
CC(/C=C/c1ccccc1)NC(N)=O (configuration not stated),2,-14%,-51,-5,-2.1,
CC(=O)Nc1ccc(/C=N/N2C(=O)NC(C)(c3ccc(OC(F)F)cc3)C2=O)cc1 (configuration not stated),-13,5%,nt,9,-0.2,
CN1C(=O)c2ccccc2NC(=O)C1Cc1ccccc1 (configuration not stated),-6,-3%,nt,-1,-1.0,
CCC(=O)NCCn1ccc2ccccc21,-9,5%,-18,3,0.7,

# 3 compounds picked at random from those above, as already listed:
SMILES,Mtb bLac sens,Mtb growth,YopH PTP inh,Arbovirus inh,RecA intein inh,others
CC(=O)Nc1ccc(/C=N/N2C(=O)NC(C)(c3ccc(OC(F)F)cc3)C2=O)cc1 (configuration not stated),-13,5%,nt,9,-0.2,
CC(/C=C/c1ccccc1)NC(N)=O (configuration not stated),2,-14%,-51,-5,-2.1,
C(=N\Nc1ccccn1)/c1ccc(N2CCOCC2)cc1,-3,-5%,nt,-27,-2.2,

# Other results follow:
SMILES,Mtb bLac sens,Mtb growth,YopH PTP inh,Arbovirus inh,RecA intein inh,others
CCC(CC)C(=O)c1c[nH]c(C(=O)NCc2ccc(F)cc2)c1,-2,nt,nt,nt,-1.9,
O=C1COc2ccc(-c3csc(NCCc4ccccc4)n3)cc2N1,75,17%,nt,-11,5.7,
COc1cccc(/C=C2\Oc3cc(OC(=O)N4CCOCC4)ccc3C2=O)c1,-4,0%,nt,nt,-0.4,
COc1cc(/C=N/NC(=O)CCc2c(C)n[nH]c2C)ccc1O,1,-9%,-29,4,-4.1,
Cn1cnc2c1c(=O)n(CC(O)CO)c(=O)n2C (configuration not stated),-7,1%,-34,1,-0.2,
O=C(c1cc([N+](=O)[O-])ccc1Cl)N1CCN(c2ccccc2)CC1,-2,6%,-14,-10,0.0,
O=C(Cn1c(=O)n(Cc2ccc3c(c2)OCO3)c(=O)c2ccccc21)N1CCCc2ccccc21,4,-11%,-7,-2,-0.6,
CCCC(=O)Nc1ccc(C(=O)N/N=C2\CC(=O)CC(C)(C)C2)cc1,-9,-6%,-20,-4,2.2,
CC(C)(C)NC(=O)N1CCCN(c2ccc(C(F)(F)F)cn2)CC1,2,3%,nt,nt,-4.4,
Cc1ccc2cc(C(c3nnnn3Cc3ccccc3)N3CCc4ccccc43)c(=O)[nH]c2c1C (configuration not stated),-2,5%,-15,2,9.5,

# 6 structures out of the list, arranged by molecular weight, high to low.
SMILES,Mtb bLac sens,Mtb growth,YopH PTP inh,Arbovirus inh,RecA intein inh,others
O=C(Cn1c(=O)n(Cc2ccc3c(c2)OCO3)c(=O)c2ccccc21)N1CCCc2ccccc21,4,-11%,-7,-2,-0.6,
Cc1ccc2cc(C(c3nnnn3Cc3ccccc3)N3CCc4ccccc43)c(=O)[nH]c2c1C (configuration not stated),-2,5%,-15,2,9.5,
O=C1COc2ccc(-c3csc(NCCc4ccccc4)n3)cc2N1,75,17%,nt,-11,5.7,
CCCC(=O)Nc1ccc(C(=O)N/N=C2\CC(=O)CC(C)(C)C2)cc1,-9,-6%,-20,-4,2.2,
COc1cc(/C=N/NC(=O)CCc2c(C)n[nH]c2C)ccc1O,1,-9%,-29,4,-4.1,
Cn1cnc2c1c(=O)n(CC(O)CO)c(=O)n2C (configuration not stated),-7,1%,-34,1,-0.2,

# Next compounds:
SMILES,Mtb bLac sens,Mtb growth,YopH PTP inh,Arbovirus inh,RecA intein inh,others
CN1CCCC(OC(=O)c2ccc(Cl)cc2)C1 (configuration not stated),-7,12%,nt,nt,1.3,
CC(c1ccon1)N(C)C(=O)c1ccc2nc(Cc3cccc(Cl)c3)oc2c1 (configuration not stated),20,nt,nt,nt,0.2,
CCn1c(=N)n(CC(=O)C(C)(C)C)c2ccccc21,6,-13%,14,0,-5.4,
Cc1c(C(=O)Nc2ccc(F)cc2)oc2ccc(S(=O)(=O)N3CCCC3)cc12,-5,nt,-21,9,-1.5,Arbovirus inh repeat=0
CN1CCCN(C(=O)c2ccc(Cl)cc2)CC1,-5,nt,nt,nt,-2.0,
N#CCCn1cc(/C=N/O)c(-c2ccc(Cl)cc2)n1,6,-6%,-7,3,3.8,
COc1ccccc1NC(=O)c1ccc(CS(=O)(=O)c2ccc(C)cc2)cc1,-3,-7%,nt,-5,-2.2,
N#CCCn1cc(CNCc2ccccc2)c(-c2cccc([N+](=O)[O-])c2)n1,-6,4%,nt,-5,-1.7,
COC(=O)c1oc2c(c1C)C1(CCC2)SCCS1,17,2%,0,-7,10,
FC(F)Oc1ccc(NC(=S)NCc2nc3ccccc3[nH]2)cc1,-6,8%,nt,3,-11,
CC1(C)CC(=O)C(C=Nc2ccc(C(=O)c3ccccc3)cc2N=CC2=C(O)CC(C)(C)CC2=O)=C(O)C1,-1,2%,nt,3,-7.3,
CCCCNC(=O)N1CCN(c2ccccc2OC)CC1,3,5%,nt,5,-0.6,
CC(C)C(NC(=O)c1cccs1)C(=O)NC1CCCCC1 (configuration not stated),?,nt,nt,nt,2.1,
COc1cc(CC2(CCc3ccncc3)C(=O)NC(=O)NC2=O)cc(OC)c1OC,-8,-9%,nt,0,2.4,
CCC(C)N(C(=O)Cn1nnc2ccccc21)C(C(=O)Nc1ccc(F)cc1)c1cccc(OC)c1 (configuration not stated),7,-3%,-25,-22,5.8,
O=C(c1cccc([N+](=O)[O-])c1)N1CCCC(C(=O)N2CCCCCC2)C1 (configuration not stated),-9,0%,nt,nt,-10,
O=C(C1CCN(S(=O)(=O)N2CCCC2)CC1)N1CCCCC1,7,-9%,-18,2,-1.4,
COc1ccccc1CCNC(=O)Cn1ccc2cc(S(=O)(=O)N3CCC(C)CC3)ccc21,7,nt,nt,nt,1.1,
Cc1cc(Oc2ccc(C(F)(F)F)cc2[N+](=O)[O-])c2c3c(c(=O)oc2c1)CCCC3,0,3%,-27,-8,3.7,
Cc1ccccc1NC(=S)NC(=O)C1CCCCC1,-2,nt,nt,nt,1.9,
CC(C)=C1C2CCC1C1C(=O)N(CCc3ccccc3)C(=O)C21 (configuration not stated),0,-2%,-18,11,-8.3,
N#Cc1cccc(C(c2nnnn2C2CCCC2)N2CCCCCC2)c1 (configuration not stated),-3,3%,24,2,5.1,
Cc1cccc(NC(=S)NNC(=O)c2ccc(O)cc2O)c1C,-7,0%,nt,8,-0.6,
C/C(=N\NC(=O)C1COc2ccccc2O1)c1ccc(Cl)s1 (configuration not stated),11,77%,nt,1,-0.3,
O=C(OC(C(=O)NCc1ccc(F)cc1)c1ccccc1)c1ccco1 (configuration not stated),-4,nt,nt,nt,3.1,
COc1ccccc1C1CC(c2ccc(NS(C)(=O)=O)cc2)=NN1C(=O)c1ccccc1 (configuration not stated),5,nt,nt,-5,nt,
O=C(c1cccc(N2C(=O)c3ccccc3C2=O)c1)N1CCCC(C(F)(F)F)C1 (configuration not stated),-11,nt,nt,nt,-0.7,
CCOC(=O)C1=C(COC(=O)/C=C/c2ccccc2Cl)NC(=O)NC1C (configuration not stated),2,nt,nt,nt,1.5,

# The list is partial. The share of hits here may be higher or lower than overall.
